High-throughput results (PubChem)
FGF22 binding: binders of human FGF22 protein, primary screen, FGF22 synaptogenesis inhibitor project, biophysical, thermal shift, single point. Fibroblast growth factor 22 (Homo sapiens), Q9HCT0. recombinant FGF22 thermal shift, SYPRO orange fluorescence; percent of sucrose octasulfate shift, DMSO zero. calls only at 9.99 µM. 340,000 compounds, 1.5% hits. AID 651658, 2012;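 active = melting point raised past a set limit in the mean and every replicate; three in four hits are not shown here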
Target sequence (Q9HCT0 whole entry, looked up): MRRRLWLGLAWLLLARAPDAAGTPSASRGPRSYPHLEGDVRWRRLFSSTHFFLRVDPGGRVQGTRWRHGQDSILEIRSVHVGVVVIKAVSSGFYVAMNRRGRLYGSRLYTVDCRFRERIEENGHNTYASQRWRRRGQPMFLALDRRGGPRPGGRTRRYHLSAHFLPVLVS
Ecoli rRNA inh: reduced GFP signal of wild-type E. coli, primary screen, bacterial rRNA inhibitor project, GFP/RFP fluorescence, OD600, single point; AID 720706, 2013; E. coli WT GFP vs humanized-ribosome RFP mutants, 24 h; hits give low values; DMSO median 0, no signal -100; GFP signal change (wild-type ribosome), % (test concentration not listed); 350,000 compounds, 1.6% hits;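 active = significant combined selectivity score with lowered wild-type GFP, culture density cut under 30%, mutant RFP and density less affected; inactive = any of these conditions unmet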; also: one replicate is shown; some compounds called inactive have numbers as strong as hits
Ecoli rRNA inh OD600: recorded beside Ecoli rRNA inh, whose call it bears; OD600 change, %; measured here: OD600 growth;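 optical density of the mix in the first replicate; 0 = DMSO median and -100 = no signal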
Ecoli rRNA inh RFP: further read-out of Ecoli rRNA inh, marked with its call; RFP signal change, %; measured here: RFP humanized mutant strains;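 first replicate; 0 = DMSO median and -100 = no signal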
Starred values were filed as active, the others as inactive; i = inactive; nt = not tested or not shown. Some of the compounds tested. The share of hits here may be higher or lower than overall.

A first look, 7 compounds:
SMILES | FGF22 binding | Ecoli rRNA inh | Ecoli rRNA inh OD600 | Ecoli rRNA inh RFP
C[C@H](CO)N1C[C@H](C)[C@@H](CN(C)Cc2ccccc2)Oc2ccc(NC(=O)Cc3ccccc3)cc2C1=O | i | 2 | 10 | -0.3
COCC(=O)Nc1ccc2c(c1)OC[C@H](C)N(Cc1cccnc1)C[C@H](C)[C@H](OC)CN(C)C2=O | i | 1 | 7 | 1.0
C[C@@H]1CN([C@H](C)CO)C(=O)c2cc(NS(=O)(=O)c3ccccc3)ccc2O[C@@H]1CN(C)Cc1ccc2c(c1)OCO2 | i | 4 | -4 | -1.6
COc1cccc(C(=O)N[C@H](C(=O)N2CCC[C@H]2C(=O)NCc2ccccc2)C2CCCCC2)c1 | i | 2 | 3 | 9.8
Cc1ccc(S(=O)(=O)Nc2ccc3c(c2)C(=O)N([C@@H](C)CO)C[C@H](C)[C@@H](CN(C)S(=O)(=O)c2ccc(Cl)cc2)OCCCC[C@H](C)O3)cc1 | i | -2 | -4 | 2.3
CCCNC(=O)C[C@@H]1C[C@H]2c3cc(NC(=O)C4CCOCC4)ccc3O[C@H]2[C@@H](CO)O1 | i | 3 | -2 | 0.1
C[C@@H]1CN([C@@H](C)CO)C(=O)Cc2cc(NC(=O)C3CCCCC3)ccc2O[C@@H]1CN(C)Cc1ccc(Cl)c(Cl)c1 | i | -5 | 5 | -5.9

The whole of this part, from the first entry:
SMILES | FGF22 binding | Ecoli rRNA inh | Ecoli rRNA inh OD600 | Ecoli rRNA inh RFP
C[C@H](CO)N1C[C@H](C)[C@@H](CN(C)Cc2ccccc2)Oc2ccc(NC(=O)Cc3ccccc3)cc2C1=O | i | 2 | 10 | -0.3
COCC(=O)Nc1ccc2c(c1)OC[C@H](C)N(Cc1cccnc1)C[C@H](C)[C@H](OC)CN(C)C2=O | i | 1 | 7 | 1.0
C[C@@H]1CN([C@H](C)CO)C(=O)c2cc(NS(=O)(=O)c3ccccc3)ccc2O[C@@H]1CN(C)Cc1ccc2c(c1)OCO2 | i | 4 | -4 | -1.6
COc1cccc(C(=O)N[C@H](C(=O)N2CCC[C@H]2C(=O)NCc2ccccc2)C2CCCCC2)c1 | i | 2 | 3 | 9.8
Cc1ccc(S(=O)(=O)Nc2ccc3c(c2)C(=O)N([C@@H](C)CO)C[C@H](C)[C@@H](CN(C)S(=O)(=O)c2ccc(Cl)cc2)OCCCC[C@H](C)O3)cc1 | i | -2 | -4 | 2.3
CCCNC(=O)C[C@@H]1C[C@H]2c3cc(NC(=O)C4CCOCC4)ccc3O[C@H]2[C@@H](CO)O1 | i | 3 | -2 | 0.1
C[C@@H]1CN([C@@H](C)CO)C(=O)Cc2cc(NC(=O)C3CCCCC3)ccc2O[C@@H]1CN(C)Cc1ccc(Cl)c(Cl)c1 | i | -5 | 5 | -5.9
O=C(NC1CCCC1)[C@@H]1[C@@H](CO)[C@@H]2Cn3c(ccc(-c4cccnc4)c3=O)[C@H]1N2CCc1ccccc1 | i | -6 | 0 | 0.5
COCC(=O)Nc1ccc2c(c1)C(=O)N(C)C[C@@H](OC)[C@H](C)CN(C(=O)C1CCCC1)[C@H](C)CO2 | i | 1 | 2 | -1.5
CO[C@H](CN(C)S(=O)(=O)c1ccc(C)cc1)[C@@H](C)CN(C(=O)Nc1ccccc1F)[C@H](C)CO | i | -4 | -5 | 3.9
Cc1cccc(S(=O)(=O)N2CC[C@@H]3[C@H]2c2cc(C#Cc4ccccc4F)ccc2N[C@@H]3CO)c1 | i | 0 | 4 | -0.6
CCCNC(=O)[C@@H]1[C@@H](CO)[C@@H]2Cn3c(ccc(-c4ccccc4)c3=O)[C@H]1N2C(=O)Nc1ccccc1 | i | -3 | -2 | -1.0
C[C@@H]1CCCCO[C@H](CN(C)S(=O)(=O)c2ccccc2)[C@H](C)CN([C@@H](C)CO)C(=O)c2cc(NS(C)(=O)=O)ccc2O1 | i | -6 | -12 | 2.5
COc1ccc(S(=O)(=O)Nc2ccc3c(c2)C(=O)N([C@H](C)CO)C[C@@H](C)[C@H](CN(C)Cc2ccncc2)OCCCC[C@@H](C)O3)cc1 | i | -1 | 13 | 2.1
CC(=O)N(C)C[C@H]1Oc2ncc(-c3ccccc3C)cc2C(=O)N([C@@H](C)CO)C[C@@H]1C | i | 3 | 3 | -0.6
COc1ccc(CN(C)C[C@H]2Oc3ccc(NC(=O)CCC(F)(F)F)cc3C(=O)N([C@@H](C)CO)C[C@@H]2C)cc1 | i | -1 | -9 | 0.4
C[C@@H]1CN([C@H](C)CO)C(=O)c2cc(NS(C)(=O)=O)ccc2O[C@H]1CN(C)C(=O)Nc1ccc(C(F)(F)F)cc1 | i | 0 | 1 | 0.2
CC(C)NC(=O)N(C)C[C@H]1Oc2cc(-c3ccccc3)ccc2S(=O)(=O)N([C@@H](C)CO)C[C@@H]1C | i | 0 | 0 | 0.9
COc1ccc(NC(=O)Nc2ccc3c(c2)CC(=O)N([C@H](C)CO)C[C@@H](C)[C@@H](CN(C)C(=O)Nc2ccc(C(F)(F)F)cc2)O3)cc1 | i | -5 | -16 | 2.9
C[C@H]1CN([C@@H](C)CO)C(=O)c2cc(-c3ccccc3)cnc2O[C@H]1CN(C)C(=O)c1ccccc1F | i | 1 | 4 | -5.4
C[C@H](CO)N1C[C@H](C)[C@H](CN(C)S(=O)(=O)c2ccc(Cl)cc2)OCc2ccccc2-c2ccccc2C1=O | i | -2 | -10 | 4.3
FC(F)(F)c1ccccc1CN1CCCc2nc(-c3ccccc3)ccc21 | nt | -17 | -13 | 48
NCC[C@H]1CC[C@H](NC(=O)C2CCCC2)[C@@H](CO)O1 | i | -1 | 6 | -1.0
C[C@H]1CN([C@@H](C)CO)S(=O)(=O)c2ccc(-c3ccncc3)cc2O[C@H]1CN(C)C(=O)c1ccc2c(c1)OCO2 | i | -5 | -8 | 2.6
COc1ccc(NC(=O)Nc2ccc3c(c2)CC(=O)N([C@@H](C)CO)C[C@H](C)[C@@H](CN(C)C(=O)Nc2ccc(OC)cc2)O3)cc1 | i | 0 | 0 | -1.8
C[C@@H]1CN([C@@H](C)CO)C(=O)c2cccc(NC(=O)c3cnccn3)c2O[C@@H]1CN(C)Cc1ccc2c(c1)OCO2 | i | 0 | 5 | -2.6
Cc1noc(C)c1S(=O)(=O)N(C)C[C@@H]1Oc2ccc(NS(=O)(=O)c3cn(C)cn3)cc2CC(=O)N([C@@H](C)CO)C[C@@H]1C | i | 5 | -2 | -2.2
O=C(Nc1cccc(Cl)c1)N[C@H]1CC[C@@H](CCNC(=O)C2CCCC2)O[C@@H]1CO | i | -2 | -4 | -0.1
CCC(=O)N1C[C@@H](C)[C@@H](OC)CN(C)C(=O)c2cc(NC(=O)COC)ccc2OC[C@H]1C | i | 1 | -3 | -1.1
Cc1cc(C)cc([C@H]2C[C@]34CN(C(=O)OC(C)(C)C)S(=O)(=O)[C@H]3C[C@H]2O4)c1 | i | 12 | 1 | 0.9
C[C@H]1CN([C@@H](C)CO)C(=O)c2ccccc2-c2ccccc2CO[C@@H]1CN(C)C(=O)Nc1cccc(C(F)(F)F)c1 | i | 0 | 0 | -0.4
COCC(=O)N1[C@H](CO)[C@@H](c2ccccc2C2=CCCC2)[C@@H]1C#N | i | 3 | 4 | 1.8
COc1ccccc1S(=O)(=O)N[C@@H]1CC[C@@H](CCNC(=O)C2CC2)O[C@@H]1CO | i | 4 | 11 | -2.8
CCS(=O)(=O)Nc1ccc2c(c1)C(=O)N(C)C[C@H](OC)[C@@H](C)CN(C(=O)NC(C)C)[C@@H](C)CO2 | i | 1 | 2 | -0.8
Cc1cccc(-c2ccc([C@@H]3[C@@H](CO)N4CCCCN(S(=O)(=O)c5cccc(C)c5)C[C@@H]34)cc2)c1 | i | 5 | 9 | 13
COCC(=O)N1[C@@H](C#N)[C@@H](c2ccc(C3=CCCC3)cc2)[C@@H]1CO | i | 0 | 11 | 0.7
C[C@@H]1CCCCO[C@H](CN(C)Cc2ccccc2)[C@@H](C)CN([C@@H](C)CO)C(=O)c2cc(NC(=O)Nc3ccc(C(F)(F)F)cc3)ccc2O1 | i | 6 | 0 | 5.5
C[C@H](CO)N1C[C@H](C)[C@@H](CN(C)C(=O)Nc2ccc(N3CCCCC3)cc2)OCc2cnnn2CCCC1=O | i | -3 | -5 | 3.0
CO[C@H]1CN(C)C(=O)c2cc(NC(=O)C3CC3)ccc2OC[C@@H](C)N(C(=O)C2CCCCC2)C[C@H]1C | i | -2 | 1 | -2.3
COc1ccc(CN(C)C[C@H]2Oc3ccc(NC(=O)Nc4ccc(C(F)(F)F)cc4)cc3CC(=O)N([C@H](C)CO)C[C@H]2C)cc1 | i | 5 | -2 | 17
C[C@@H]1CCCCO[C@H](CN(C)Cc2ccncc2)[C@@H](C)CN([C@@H](C)CO)C(=O)c2cc(NS(=O)(=O)c3cn(C)cn3)ccc2O1 | i | -2 | -3 | 2.3
C[C@H](CO)N1C[C@H](C)[C@@H](CN(C)C(=O)Nc2ccccc2)OCCCC[C@H](C)Oc2ccc(NC(=O)Nc3ccc(F)cc3)cc2C1=O | i | 0 | 7 | 2.0
CN1C(=O)c2cc(NC(=O)Cc3ccccc3)ccc2OC[C@@H]2O[C@H](CC(=O)NC3CCC3)CC[C@@H]21 | i | -3 | 1 | 0.9
COC(=O)[C@]12C[C@H](CC(=O)N3CCN(C(=O)C4CC4)CC3)C(=O)N(CCC3=CCCCC3)C1=C[C@H](C(C)(C)C)O[C@@H]2C | i | 1 | -8 | 0.3
CC(=O)N(C)C[C@@H]1Oc2ncc(C#CCc3ccccc3)cc2C(=O)N([C@@H](C)CO)C[C@H]1C | i | 3 | 3 | 1.5
COc1ccc(-c2cnc3c(c2)C(=O)N([C@H](C)CO)C[C@H](C)[C@@H](CN(C)Cc2ccc(C(=O)O)cc2)O3)cc1 | i | 3 | 4 | -4.9
C[C@H](CO)N1C[C@H](C)[C@@H](CN(C)Cc2ccncc2)Oc2ccc(NC(=O)Nc3ccc(C(F)(F)F)cc3)cc2CC1=O | i | -12 | -51 | 33
C[C@H]1CN([C@@H](C)CO)C(=O)Cc2cc(NC(=O)Nc3ccc4c(c3)OCO4)ccc2O[C@H]1CN(C)CC1CC1 | i | -2 | -10 | 0.6
CC=Cc1ccc2n(c1=O)C[C@H]1[C@H](CO)[C@@H](C(=O)NCC)N(Cc3nccs3)[C@@H]21 (mixture of isomers) | i | 2 | 2 | 2.0
C[C@@H]1CN([C@H](C)CO)C(=O)c2cccc(NC(=O)C3CCCCC3)c2O[C@@H]1CN(C)C(=O)Nc1ccccc1 | i | 0 | 2 | -2.9
CC(=O)N(C[C@@H]1N[C@@H](CO)[C@H]1c1ccc(-c2ccccc2)cc1)C(C)C | i | -1 | 10 | 4.6
C[C@H](CO)N1C[C@H](C)[C@H](CN(C)Cc2ccccc2)OCCCC[C@H](C)Oc2ccc(NC(=O)CCCN(C)C)cc2C1=O | i | 1 | 3 | -3.0
C[C@@H]1CN([C@H](C)CO)S(=O)(=O)c2ccc(C#CC3CCCC3)cc2O[C@H]1CN(C)C | i | 1 | -27 | 35
COc1ccccc1C#Cc1cnc2c(c1)C(=O)N([C@H](C)CO)C[C@H](C)[C@H](CN(C)C(=O)c1ccc3c(c1)OCO3)O2 | i | -2 | 3 | 0.4
CC(C)CC#Cc1ccc2c(c1)O[C@@H](CN(C)Cc1ccncc1)[C@@H](C)CN([C@H](C)CO)S2(=O)=O | i | -2 | -22 | 8.3
O=C(N[C@H](C(=O)N1CCC[C@H]1C(=O)NCCc1ccccc1Cl)C1CCCCC1)c1ccccc1 | i | -25 | -32 | 3.4
C[C@@H]1CN([C@H](C)CO)C(=O)c2cc(NC(=O)CCCN(C)C)ccc2O[C@H]1CN(C)S(C)(=O)=O | i | 3 | 11 | -0.4
O=C(c1ccccn1)N1CC2(C1)[C@@H](c1ccccc1)[C@@H](CO)N2C(=O)C1CC1 | i | -2 | 3 | -2.9
CN(C)C(=O)[C@H]1[C@H](CO)[C@H]2Cn3c(ccc(-c4cncnc4)c3=O)[C@H]2N1Cc1ccccc1F | i | 1 | 2 | -0.1
CN(C)CC(=O)N[C@H]1CC[C@H](CCNC(=O)C2CCCC2)O[C@@H]1CO | i | 2 | 9 | -1.7
Remaining list, next part:
SMILES | FGF22 binding | Ecoli rRNA inh | Ecoli rRNA inh OD600 | Ecoli rRNA inh RFP
CN(C)C(=O)c1ccc(-c2ccc([C@@H]3[C@@H](CO)N4CCCCN(CC5CC5)C[C@H]34)cc2)cc1 | i | 2 | -6 | 3.6
CCC(=O)N(C)C[C@H]1Oc2cc(C#C[C@@H](C)O)ccc2S(=O)(=O)N([C@@H](C)CO)C[C@H]1C | i | 4 | 6 | -1.8
CN1c2ccc(C3=CCCCC3)cc2[C@H]2[C@H](CCN2C(=O)C2CCCC2)[C@@H]1CO | i | -4 | -2 | 1.0
C[C@H]1CN([C@@H](C)CO)C(=O)Cc2cc(NC(=O)c3ccncc3)ccc2O[C@H]1CN(C)S(=O)(=O)c1ccccc1 | i | 0 | 1 | -1.5
C[C@H](CO)N1C[C@H](C)[C@@H](CN(C)C(=O)Nc2ccc3c(c2)OCO3)OCCCC[C@H](C)Oc2ccc(NC(=O)c3ccccc3)cc2C1=O | i | -3 | 1 | -0.9
